Assay outcomes: PubChem, Southern Research Institute
Mtb H37Rv = Mycobacterium tuberculosis H37Rv growth inhibition, cell based, confirmatory dose response (AID 1949). most inactive calls were filed without a number and no value below 0 was filed. inhibition, % at 10 µg/mL; hits with a dose series show IC50 in µg/mL. hit rate 1.6% among 100,000;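 active = confirmed in a dose series; inconclusive = about 50% or more but not retested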;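 also: bacteria grown 7 days with compound before Alamar blue readout; 0% = untreated bacteria and 100% = reference antibiotic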
Active calls of the source: *; i = inactive; ? = inconclusive. Not all compounds are listed; the hit share may differ from the screen's.

no.	smiles	Mtb H37Rv
1	Cc1scc(C(=O)NN2CCOCC2)c1-c1ccccc1	i
2	CCOc1ccc(C)cc1S(=O)(=O)NC(C)(C)C	i
3	CCOC(=O)C1CCN(CC(O)COc2ccccc2F)CC1 (stereo not drawn)	i
4	Cc1ccc(S(=O)(=O)Nc2ccccc2CNc2ccc(Cl)c(Cl)c2)cc1	i
5	C=CCn1c(SCC(=O)Nc2ccc(F)cc2F)nnc1-c1cc(Br)ccc1O	i
6	O=C(CCc1ccccc1)Nc1cccc2nsnc12	i
7	COC(=O)COc1cccc(C2CC(=O)Nc3c2ccc2ccccc32)c1 (stereo not drawn)	?
8	Cc1ccccc1/C(N)=N/OC(=O)c1cccc([N+](=O)[O-])c1	i
9	Cc1onc(-c2ccccc2Cl)c1C(=O)NCCCc1ccccc1	i
10	COc1cccc(C2NC(=S)NC3=C2CCc2ccccc23)c1OC (stereo not drawn)	i
11	CC(=O)Nc1ccc(S(=O)(=O)Nc2cc(Cl)ccc2C)cc1	i
12	COCc1cc(C)nc2sc(C(=O)NC3CCCCC3)c(N)c12	i
13	Cc1cc(OCC(=O)Nc2ccc3ccccc3c2)cc(C)c1Br	i
14	Cc1cc(C)c2nc(NC3=NC(c4ccccc4)CC(=O)N3)nc(C)c2c1 (stereo not drawn)	i
15	COc1cc(-c2nc3cc(Cl)ccc3c(=O)o2)ccc1OC(C)=O	?
16	Cc1oc2c(c(C)cc3oc(=O)c4c(c32)CCC4)c1-c1ccccc1	1.2%
17	COc1cccc(CNC(C)c2ccccc2)c1OCc1ccccc1F (stereo not drawn)	27.4%
18	O=C(c1ccc(Br)o1)N1CCN(c2ccccn2)CC1	i
19	Cc1cc(C(C)(C)C)cc(S(=O)(=O)Nc2ccc(O)cc2)c1C	0.6%
20	CCCCNC(=O)Nc1cc(C(=O)OC)ccc1C	i
21	CC1(C)CC(NC(=O)c2ccc3nc(-c4ccccc4)c(-c4ccccc4)nc3c2)CC(C)(C)N1	i
22	Brc1ccc(CN2CCC(N3CCc4ccccc4C3)CC2)cc1	i
23	COC(=O)c1c(C)oc2ccc(NS(=O)(=O)c3ccc(F)cc3)cc12	i
24	Cc1cccc(C(=O)Nc2ccc(NC(=S)NC(=O)c3ccccc3)cc2)c1	i
25	Cc1cccc(-n2c(SCC(=O)N3CCCC3)nnc2-c2ccc(Cl)cc2)c1	i
26	CCOC(=O)N1CCN(C(=O)CCc2ccc(S(=O)(=O)NCC(C)C)cc2)CC1	i
27	O=C(CN1CCN(C(=O)N2CCOCC2)CC1)Nc1ccc(Br)cc1	i
28	CC(=O)Nc1ccc(-c2csc(Nc3ccc(O)cc3C)n2)cc1	i
29	O=C(c1ccccc1Br)N1CCN(c2ccc(Cl)cc2)CC1	2.7%
30	COC(=O)COc1ccc(S(=O)(=O)Nc2ccc(Oc3ccccc3)cc2)cc1Cl	i
31	COC(=O)c1ccccc1NC(=O)COc1ccc(Br)c(C)c1	2.2%
32	CCOC(=O)C1=C(CNCc2ccccc2Cl)NC(=O)NC1c1ccc2c(c1)OCO2 (stereo not drawn)	3.0%
33	Cc1ccc(C(=O)c2cncc(Br)c2)cc1	2.1%
34	Cc1cccc(NC(=S)NNC(=O)COc2ccc(Cl)c(Cl)c2)c1C	i
35	Cc1cc(OCC(=O)Nc2ccc(F)c(Cl)c2)cc(C)c1Br	2.9%
36	O=C(CN(c1ccc([N+](=O)[O-])cc1)S(=O)(=O)c1ccccc1)N1CCN(c2cccc(Cl)c2)CC1	i
37	Cc1ccc(NC(=O)c2cc([N+](=O)[O-])ccc2N2CCN(C)CC2)cc1Cl	i
38	Cc1c(OC(=O)C2CC2)ccc2c3c(c(=O)oc12)CCC3	21.1%
39	COc1ccc(C)cc1N(CC(=O)NCCSCc1c(Cl)cccc1Cl)S(C)(=O)=O	i
40	CCCC1CCc2c(sc(NC(=O)OC)c2C#N)C1 (stereo not drawn)	i
41	COc1ccc(N2CCN(C(=O)c3ccccc3-c3ccccc3)CC2)cc1	1.2%
42	COCC(=O)NNC(=O)Nc1ccc(OC)c(OC)c1	i
43	COC(=O)c1c(NC(=O)C(C)Oc2ccc(OC)cc2)sc2c1CCC2 (stereo not drawn)	22.1%
44	O=C(Nc1ccc(S(=O)(=O)NCC2CCCO2)cc1)c1cccs1 (stereo not drawn)	1.3%
45	O=C1NC(=O)C(CCc2ccncc2)(CCc2ccncc2)C(=O)N1c1cccc(C(F)(F)F)c1	i
46	CC(=O)Oc1ccc(Cl)cc1/C=C/c1cc(OC(C)=O)c2ccccc2n1	i
47	CCOC(=O)Cc1nnc(NC(=O)CSc2nnc3c4ccccc4n(CC)c3n2)s1	i
48	O=C(O)CCc1ccc(-c2cccs2)n1Cc1ccco1	i
49	CCOc1ccc(C2CC(c3ccc(F)cc3)n3ncnc3N2)cc1 (stereo not drawn)	3.1%
50	COC(=O)c1ccc(C2C(C#N)=C(N)Oc3n[nH]c(-c4ccccc4Cl)c32)cc1 (stereo not drawn)	4.4%
51	Cc1ccc(CNC(=O)c2cccc(C)c2[N+](=O)[O-])cc1	6.2%
52	O=C(COc1ccc(F)c(Cl)c1)NNC(=S)Nc1ccc2c(c1)OCO2	i
53	CCOC(=O)COc1ccc(S(=O)(=O)Nc2cccc(Cl)c2C)cc1	3.03µg/mL*
54	CC(C)(C)c1ccc(C(=O)N2CCC(C(=O)N3CCN(c4ccc(F)cc4)CC3)CC2)cc1	20.5%
55	CCCC(=O)Nn1c(=O)[nH]c2ccccc2c1=O	i
56	COc1cccc(-c2cc(C(F)(F)F)n3nc(C(=O)N4CCCCC4c4cccnc4)cc3n2)c1 (stereo not drawn)	?
57	Cc1cc2oc3c(c(=O)c2cc1C)C(c1ccc(Cl)c(Cl)c1)N(Cc1ccccc1)C3=O (stereo not drawn)	1.1%
58	COc1ccc(S(=O)(=O)Nc2cccc(Cl)c2)cc1C(=O)Nc1cccc(Cl)c1	i
59	COc1cccc(-n2c(-c3ccccc3)nc(=S)c3c2CC(C)(C)OC3)c1	i
60	Cc1ccc(Cn2ncc3c(N4CCN(CCOc5ccc(C)cc5)CC4)ncnc32)cc1	11.8%

(more compounds)
no.	smiles	Mtb H37Rv
61	CC(=O)c1cccc(NC(=O)NN2CCOCC2)c1	0.6%
62	Cc1ccc(NC(=S)Nc2ccc(Cl)c(Cl)c2)c(OC(F)F)c1	2.92µg/mL*
63	O=C(NC1(C(F)(F)F)C(=O)Nc2c1c(=O)[nH]c(=S)n2CCc1ccccc1)c1ccccc1 (stereo not drawn)	i
64	O=C(CNC(=O)c1ccco1)OCC(=O)c1ccccc1	i
65	CCC(CC)C(=O)Nc1cccc(C(=O)Nc2ccc(OC)cc2)c1	i
66	CC1CCCN(C(=O)NC2CCCCC2)C1 (stereo not drawn)	i
67	Cc1nn(S(=O)(=O)N(C)C)c(C)c1C	0.2%
68	CNC(=S)Nc1ccccc1Cl	i
69	Cc1nn(CC(O)Cn2c3c(c4ccccc42)CCN(C)C3=O)c(C)c1Br (stereo not drawn)	1.6%
70	COC(=O)c1sc(NC(=O)c2cc(-c3ccc(OC)cc3OC)nc3ccccc23)c(C(=O)OC)c1C	i
71	O=C1c2ccccc2C(=O)N1CCCc1nc(-c2cccnc2)no1	i
72	Cc1nnc(NC(=O)c2ccc(C(C)C)cc2)s1	i
73	COC(=O)CSc1nnc(-c2cccnc2)n1Cc1ccco1	i
74	CS(=O)(=O)N(Cc1ccccc1)c1ccccc1C(=O)N1CCN(c2ccccc2)CC1	i
75	CC(=O)c1ccc(NC(=O)C(C)Oc2ccccc2)cc1 (stereo not drawn)	i
76	CC1=CCC2C(=O)N(c3nc4ccccc4n3C)C(=O)C2C1 (stereo not drawn)	i
77	CCc1ccc(C(=O)Nc2ccc(N3CCN(S(C)(=O)=O)CC3)cc2)cc1	i
78	Cc1cccc(C)c1NC(=O)C1CC(=O)N(Cc2ccccc2)C1 (stereo not drawn)	i
79	COc1ccc(-c2cc(OC(=O)c3ccco3)c3c(C)oc(C)c3c(=O)c2)cc1	0.5%
80	COc1cccc(NC(=S)Nc2ccc(F)cc2)c1	i
81	CCOc1ccccc1OCCCCOc1ccccc1C	i
82	CSc1ccccc1C(=O)Nc1ccc(C(C)C)cc1	i
83	CC(Oc1ccc(Cl)cc1Cl)C(=O)NCCc1ccc(F)cc1 (stereo not drawn)	?
84	Cc1ccc(-c2nc3cc(C)ccc3o2)cc1	i
85	Cc1cc(C)c(NC(=O)CSc2nnc(-c3ccc(Cl)cc3)n2C)c(C)c1	i
86	COc1cc(OC)c(C(=O)NCCCN(C)C)cc1OC	i
87	Cc1ccc2nc(-c3ccccc3)cc(C(=O)OCC(=O)c3ccccc3)c2c1	i
88	O=C(NCC1CCCO1)c1cc(-c2ccccc2)on1 (stereo not drawn)	i
89	Cc1ccc(C)c(NC(=S)NC(=O)c2cc(I)ccc2Cl)c1	i
90	Cc1cc(C)cc(C(=O)NC(=S)Nc2sc3c(c2C(N)=O)CCCCC3)c1	i

Quoted at random: seven entries already listed.
no.	smiles	Mtb H37Rv
76	CC1=CCC2C(=O)N(c3nc4ccccc4n3C)C(=O)C2C1 (stereo not drawn)	i
69	Cc1nn(CC(O)Cn2c3c(c4ccccc42)CCN(C)C3=O)c(C)c1Br (stereo not drawn)	1.6%
79	COc1ccc(-c2cc(OC(=O)c3ccco3)c3c(C)oc(C)c3c(=O)c2)cc1	0.5%
86	COc1cc(OC)c(C(=O)NCCCN(C)C)cc1OC	i
74	CS(=O)(=O)N(Cc1ccccc1)c1ccccc1C(=O)N1CCN(c2ccccc2)CC1	i
61	CC(=O)c1cccc(NC(=O)NN2CCOCC2)c1	0.6%
66	CC1CCCN(C(=O)NC2CCCCC2)C1 (stereo not drawn)	i

More compounds.
no.	smiles	Mtb H37Rv
91	CCCSc1nnc(NC(=O)Cc2coc3ccc(C)cc23)s1	i
92	COc1ccccc1NC(=S)N1CCN(c2cc(Cl)ccc2C)CC1	2.8%
93	CCOc1ccccc1NC(=O)CN(c1cccc([N+](=O)[O-])c1)S(C)(=O)=O	i
94	Cc1ccc(-n2c(CCc3ccccc3)nnc2SCC(=O)Nc2ccc(C)c(C)c2)cc1	i
95	CC1(C(=O)Nc2cccc(Br)c2)CC(=O)N=C2C=CC=CN21 (stereo not drawn)	i
96	CCNc1cc(N2CCN(S(C)(=O)=O)CC2)ccc1[N+](=O)[O-]	i
97	CCOc1ccccc1C(=O)N=C1NC(=O)CS1	i
98	N#Cc1ccc(-c2ccc(Cl)cc2[N+](=O)[O-])o1	i
99	CCc1ccc(NC(=O)Cn2nnc(-c3ccccc3)n2)cc1	i
100	CC(C)(C)c1ccc(S(=O)(=O)N2C(=S)NC(=O)C2Cc2ccccc2)cc1 (stereo not drawn)	i
101	CC(=O)C1C(c2cccc([N+](=O)[O-])c2)C2C(C)=NN=C2CC1(C)O (stereo not drawn)	i
102	COc1ccc2c(c1)CCCN2C(=O)c1ccc2c3c(cccc13)CC2	3.6%
103	CN1CCN(CCCCOc2cccc(Br)c2)CC1	i
104	Cc1nn(Cc2ccc(Cl)cc2Cl)c(C)c1NC(=S)Nc1cccc(Cl)c1Cl	i
105	COc1ccc(C(=O)NC(=S)Nc2ccc(S(=O)(=O)NC(C)(C)C)cc2)cc1I	i
106	COc1ccc(S(N)(=O)=O)cc1NC(=O)c1ccccc1	i
107	O=C(NCc1ccc(F)cc1)c1cc(-c2ccco2)nc2ccccc12	2.1%
108	CCc1ccc(NC(=O)C2CCN(C(=O)c3ccccc3C)CC2)cc1	i
109	COc1cc(OC)c(OC)cc1CN1CCC(N2CCN(c3ccccc3)CC2)CC1	i
110	COCCNC(=O)c1cccc(NC(=O)c2ccccc2)c1	i
111	COc1ccccc1OCc1ccc(C(=O)Oc2ccc([N+](=O)[O-])cc2)cc1	0.1%
112	CCOc1ccc(N2C(=O)CC(N3CCN(c4ccc(O)cc4)CC3)C2=O)cc1 (stereo not drawn)	i
113	COc1ccc(S(=O)(=O)N(C)CC(=O)Nc2ccc(OC)c(OC)c2)cc1	i
114	O=C1CCCC(=O)N1c1ccc(Oc2cccc3ccccc23)cc1	i
115	O=C(Cn1nnc2ccccc21)NCc1ccccc1	i
116	FC(F)Sc1nnc(-c2ccccc2)n1-c1ccccc1	i
117	COc1ccccc1-c1nnc(SC/C=C/c2ccccc2)n1C	i
118	COc1ccc(Cl)cc1NC(=S)NC(=O)c1cccc(C)c1OC	i
119	CCCNC(=S)Nc1cc(OC)c(Cl)cc1OC	0.7%
120	C=CCNC(=O)COc1ccc(CC)cc1Br	i

Exported as labelled records: entries from further up.
96) CCNc1cc(N2CCN(S(C)(=O)=O)CC2)ccc1[N+](=O)[O-]
  Mtb H37Rv: i

97) CCOc1ccccc1C(=O)N=C1NC(=O)CS1
  Mtb H37Rv: i

98) N#Cc1ccc(-c2ccc(Cl)cc2[N+](=O)[O-])o1
  Mtb H37Rv: i

Other compounds:
no.	smiles	Mtb H37Rv
121	COc1ccc(Cl)cc1NC(=O)N1CCCC1	3.6%
122	CCOc1cc(S(=O)(=O)n2nnc3ccccc32)ccc1Br	i
123	O=C(CSc1ccccc1)Nc1nnc(-c2ccc(F)cc2)s1	i
124	Cc1ccc(-c2nc(N)sc2C)cc1C	i
125	COC(=O)Cn1cnc2c(C#N)c3n(c2c1=O)CCCCC3	i
126	C=CCn1c(COc2ccccc2OC)nc2ccccc21	i
127	Fc1ccccc1OCCCN1CCOCC1	i
128	COCCSc1ccccc1C(=O)Nc1ccccc1C(F)(F)F	i
129	CC(C)(C)NS(=O)(=O)c1ccc(NS(=O)(=O)c2ccc(Br)cc2)cc1	i
130	C=CCOc1cccc(CNc2ccc3[nH]c(=O)[nH]c3c2)c1	5.1%
131	CS(=O)(=O)c1ccc(Cl)c(S(=O)(=O)NCc2ccccc2)c1	i
132	O=C(Nc1ccccc1N1CCN(C(=O)c2ccc(Cl)cc2)CC1)c1ccc(Br)cc1	26.9%
133	CC(=O)c1cccc(Nc2nc(=O)c3cccnc3s2)c1	i
134	Cc1occc1C(=O)N1CCN(C)CC1	1.4%
135	Cc1cc(=O)oc2cc(NC(=S)NNC(=O)C(C)Sc3nc4ccccc4s3)ccc12 (stereo not drawn)	i
136	COc1ccc(C(=O)NC23CC4CC(CC(C4)C2)C3)c(OC)c1	i
